E coli growth: E. coli growth inhibition; Escherichia coli growth, OD600, 23 h; hits give low values; OD600 absorbance (no concentration beside the values); 0.21% of 330,000 active;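 active = OD600 absorbance below the run mean of sample wells minus 3.6 SD, in any replicate, cut at about 0.56 in these data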;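 also: stock transfer was 300 nL into about 60 µL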
B2AR ag: activates human beta-2 adrenergic receptor causing internalization | Am2.2-beta2AR cells, FAP receptor internalization, flow cytometry; reference of the scale not given here | P07550 | 0.43% of 340,000 active | response, % (no concentration beside the values);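 active = response above a set limit, near 3 SD of response in nonfluorescent compounds, cut at about 42% in these data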;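 also: stock transfer was 100 nL into about 11 µL; a reference agonist was the positive control; negative values mostly stem from fluorescent compounds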
HNF4A DNA FP: change in binding of human HNF4 alpha to DNA; P41235; HNF4a-FITC DNA binding, fluorescence polarization, 1 h; activity change, % at 10 µM; 0.3% of 360,000 active; in the data active = activity change above about 30%, passing the limit was not always enough;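 also: controls were the assay level and a saturating level of protein; the project sought stronger binding though the title names inhibitors; some compounds called inactive have numbers as strong as hits; positive values seem to mean higher polarization but the record does not say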
Target sequence (P41235 whole entry, looked up): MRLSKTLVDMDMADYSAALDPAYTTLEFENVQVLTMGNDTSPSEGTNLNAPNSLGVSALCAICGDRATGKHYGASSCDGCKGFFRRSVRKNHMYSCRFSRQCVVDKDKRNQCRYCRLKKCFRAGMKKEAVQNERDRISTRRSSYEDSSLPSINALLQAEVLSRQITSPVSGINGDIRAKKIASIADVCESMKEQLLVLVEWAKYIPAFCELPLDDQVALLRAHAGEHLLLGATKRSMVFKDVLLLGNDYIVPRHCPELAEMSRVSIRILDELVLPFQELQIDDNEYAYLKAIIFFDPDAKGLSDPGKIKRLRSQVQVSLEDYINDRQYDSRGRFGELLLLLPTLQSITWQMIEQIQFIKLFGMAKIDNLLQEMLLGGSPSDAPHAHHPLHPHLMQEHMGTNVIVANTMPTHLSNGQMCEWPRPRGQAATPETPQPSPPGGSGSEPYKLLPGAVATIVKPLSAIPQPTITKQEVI
rRNA inh HTS: inhibitors of bacterial rRNA selective over humanized ribosomes. AID 720706. GFP signal change (wild-type ribosome), % (concentration not given with the values). 1.6% of 350,000 active. E. coli WT GFP vs humanized-ribosome RFP mutants, fluorescence, 24 h; hits give low values; DMSO median 0, no signal -100;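 active = significant combined selectivity score with lowered wild-type GFP, culture density cut under 30%, mutant RFP and density less affected; inactive = any of these conditions unmet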; also: one replicate is shown; some compounds called inactive have numbers as strong as hits
UCH37 inh: blocks the human deubiquitinase UCH37; Q9Y5K5; purified proteasome/UCH37, Ub-AMC cleavage fluorescence; inhibition, % (test concentration not listed); 0.33% of 330,000 active; AID 588478;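 active = mean of two replicates above 20%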;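 also: 0% = compound-free wells with enzyme and 100% = wells lacking proteasome; stock transfer was 100 nL into about 20 µL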
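Test system – human UCH37 enzyme supplied as purified proteasome complex · Incubation – 30 min preincubation with enzyme, 25 min cleavage at room temperature · Detection – AMC fluorescence from Ub-AMC cleavage, excitation 355 nm, emission 460 nm · Benchmarks – no-proteasome wells (full inhibition) and compound-free wells (no inhibition)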
FGF22 binding: binders of recombinant human FGF22 by thermal shift | SYPRO orange fluorescence; percent of sucrose octasulfate shift, DMSO zero | calls only at 9.99 µM | 1.5% of 340,000 active;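 active = melting point raised past a set limit in the mean and every replicate; three in four hits are not shown here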
Target sequence (Q9HCT0 whole entry, looked up): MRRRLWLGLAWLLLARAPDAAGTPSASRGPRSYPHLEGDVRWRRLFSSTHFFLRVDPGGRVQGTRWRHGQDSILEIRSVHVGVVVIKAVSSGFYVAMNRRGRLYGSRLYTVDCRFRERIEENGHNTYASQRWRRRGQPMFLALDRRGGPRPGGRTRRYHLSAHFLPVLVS
ALR H2O2 inh: inhibitors of human sulfhydryl oxidase ALR; inhibition, % (no concentration beside the values); purified ALR, DTT oxidation, H2O2 HRP-luminol luminescence; 3.8% of 290,000 active; P55789;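 active = mean and each replicate at 75% or more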;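 also: stock transfer was 7.5 nL into about 7.5 µL; 0% = neutral wells and 100% = wells with inactivated enzyme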
Target sequence (P55789 whole entry, looked up): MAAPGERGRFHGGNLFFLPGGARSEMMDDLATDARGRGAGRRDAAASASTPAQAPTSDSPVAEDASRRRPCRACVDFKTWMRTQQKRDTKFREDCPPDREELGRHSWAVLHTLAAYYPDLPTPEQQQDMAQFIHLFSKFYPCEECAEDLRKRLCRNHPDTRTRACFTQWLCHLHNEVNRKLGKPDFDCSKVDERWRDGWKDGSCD
rRNA inh HTS OD600: also measured in rRNA inh HTS; calls as there; OD600 change, %; measured here: OD600 growth;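 optical density of the mix in the first replicate; 0 = DMSO median and -100 = no signal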
rRNA inh HTS RFP: recorded beside rRNA inh HTS, whose call it bears; RFP signal change, %; measured here: RFP humanized mutant strains;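 first replicate; 0 = DMSO median and -100 = no signal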
Starred values were filed as active, the others as inactive; i = inactive; · = no result given.

entry	Compound	E coli growth	B2AR ag	HNF4A DNA FP	rRNA inh HTS	rRNA inh HTS OD600	rRNA inh HTS RFP	UCH37 inh	FGF22 binding	ALR H2O2 inh
1	N#Cc1cccc(NC(=O)CN2C(=O)NC(Cc3ccccc3)C2=O)c1 (stereo not drawn)	0.63	-5	-7.1	3	-8	1.0	1.0	i	-4
2	Clc1ccc(CSc2nnc(-c3ccc4c(c3)OCO4)o2)cc1	0.78	-1	-1.1	·	·	·	2.1	·	·
3	CCC(C)(C)NC(=O)CN(Cc1cccs1)C(=O)CCC(=O)Nc1nccs1	0.72	-10	-0.6	4	2	-2.0	1.0	·	1
4	Cc1cc(C)c(NC(=O)CNC(=O)c2ccc3c(=O)n4c(nc3c2)CCC4)c(C)c1	0.68	-5	-0.2	8	13	-0.6	-1.7	i	·
5	Cc1ccc2[nH]c(=O)c(CN(CCc3ccccc3)C(=O)N3CCOCC3)cc2c1	0.68	-3	-2.7	·	·	·	-7.5	·	·
6	C=CCNC(=O)Cc1ccc(S(=O)(=O)N2CCOCC2)s1	0.69	12	0.2	7	14	-2.6	-5.7	i	-7
7	O=C(c1cccc([N+](=O)[O-])c1)c1ccc2[nH]c(=O)[nH]c2c1	0.71	4	4.2	0	5	-3.0	2.1	i	48
8	O=C1c2cccc3cccc(c23)C(=O)N1Cc1ccccn1	·	·	0.4	-5	-9	1.7	·	i	·
9	O=C(Nc1sc2c(c1C(=O)N1CCOCC1)CCCCC2)c1cccnc1	0.65	6	0.2	6	1	1.5	6.2	i	14
10	O=C(CCC(=O)Nc1ccc(F)cc1)N/N=C/c1ccc(Br)cc1	·	-8	-1.1	-3	10	0.3	·	i	-11
11	COc1cccc(Cn2cc(C)cc(NC(=O)NCc3ccccc3)c2=O)c1	0.67	-5	1.1	11	3	1.3	-46	i	-40
12	O=C(NCc1cccnc1)Nc1cc(Cl)cc(Cl)c1	0.62	-6	1.0	-65	-70	-23	1.6	i	-4
13	COc1cc(CN2CCC(C(=O)NC(c3ccc(F)cc3)c3ccc4ccccc4n3)CC2)cc(OC)c1 (stereo not drawn)	·	·	-1.1	-51	-81	-13	·	i	·
14	CC(=O)Nc1cc(C(=O)N2CCCC2)ccc1Sc1ccc(C)cc1	0.67	-4	1.9	·	·	·	3.1	·	0
15	CC(=O)Nc1sc2c(c1C(c1ccncc1)N1CCOCC1)CCCC2 (stereo not drawn)	0.69	1	-3.2	6	1	4.1	7.0	i	-16
16	CCOC(=O)c1ccc(NC(=O)C2(c3ccc(OC)cc3)CCCC2)cc1	0.71	10	0.0	·	·	·	2.5	·	-2
17	CC(C)(C)C(=O)COC(=O)c1c2c(nc3ccccc13)CCC2	0.73	-6	-3.5	-10	-11	-1.6	4.1	i	3
18	CCCCN(C)S(=O)(=O)c1ccc(C(=O)Nc2nnc(-c3ccco3)o2)cc1	0.67	-1	-4.4	-33	-28	-0.3	5.3	i	84*
19	CN(C(=O)c1cccc(NC(=O)C2CCN(C(=O)OC(C)(C)C)CC2)c1)C1CCC1	0.69	11	2.4	-4	-9	-8.4	-1.3	i	4
20	Cc1nn(C(=O)c2cccnc2)c(C)c1Sc1ccc(Br)cc1	0.67	3	1.9	·	·	·	2.1	·	7

Among those listed so far, 5 have a halogen:
entry	Compound	E coli growth	B2AR ag	HNF4A DNA FP	rRNA inh HTS	rRNA inh HTS OD600	rRNA inh HTS RFP	UCH37 inh	FGF22 binding	ALR H2O2 inh
2	Clc1ccc(CSc2nnc(-c3ccc4c(c3)OCO4)o2)cc1	0.78	-1	-1.1	·	·	·	2.1	·	·
10	O=C(CCC(=O)Nc1ccc(F)cc1)N/N=C/c1ccc(Br)cc1	·	-8	-1.1	-3	10	0.3	·	i	-11
12	O=C(NCc1cccnc1)Nc1cc(Cl)cc(Cl)c1	0.62	-6	1.0	-65	-70	-23	1.6	i	-4
13	COc1cc(CN2CCC(C(=O)NC(c3ccc(F)cc3)c3ccc4ccccc4n3)CC2)cc(OC)c1 (stereo not drawn)	·	·	-1.1	-51	-81	-13	·	i	·
20	Cc1nn(C(=O)c2cccnc2)c(C)c1Sc1ccc(Br)cc1	0.67	3	1.9	·	·	·	2.1	·	7

(continued)
entry	Compound	E coli growth	B2AR ag	HNF4A DNA FP	rRNA inh HTS	rRNA inh HTS OD600	rRNA inh HTS RFP	UCH37 inh	FGF22 binding	ALR H2O2 inh
21	Cc1cc(C)n(CC(=O)NNC(=O)COc2ccc(F)cc2Br)n1	0.68	-7	-0.8	3	9	0.2	0.9	i	·
22	COc1ccc(OC)c(-c2csc(NC(=O)C3=NN(c4ccccc4)C(=O)CC3)n2)c1	0.71	12	3.9	-5	2	-1.1	0.6	i	-14
23	Cc1cccc(C(=O)Nc2nnc(SCC(=O)Nc3ccc4c(c3)oc3ccccc34)s2)c1	0.73	2	-0.8	·	·	·	6.6	i	-20
24	O=C(O)C(=Cc1cccc([N+](=O)[O-])c1)c1ccccc1	·	·	1.4	-13	4	-8.1	·	i	·
25	c1ccc(Cn2nnnc2C(c2cccnc2)N2CCN(c3ccccc3)CC2)cc1 (stereo not drawn)	0.69	7	0.2	·	·	·	2.3	·	98*
26	NS(=O)(=O)c1ccc(CCNC(=O)c2ccc3c(=O)n4c(nc3c2)CCCCC4)cc1	0.65	-2	1.9	-1	-1	1.0	0.3	i	-2
27	COc1ccc(/C=C/C(=O)Nc2nc(C)cc(C)n2)cc1OC	0.73	-2	3.1	·	·	·	-90	·	-9
28	CCc1ccccc1NC(=O)CC(NCc1ccccc1)C(=O)O (stereo not drawn)	0.68	-1	-0.8	24	15	-1.3	1.6	i	1
29	O=C(CCS(=O)(=O)Cc1ccccc1)Nc1ccc2c(c1)OCCO2	0.71	5	-0.9	2	-3	1.8	-1.2	i	-5
30	CN(C)CC(=O)Nc1cc(C(F)(F)F)ccc1Cl	0.65	-8	-6.5	·	·	·	4.4	·	3
31	CCN(CC(=O)Nc1ccc(NC(C)=O)cc1)C(=O)c1cc(-c2ccccc2)nn1-c1ccccc1	0.67	7	0.7	3	8	1.1	2.6	i	·
32	O=C(CCC1CCCC1)NC1CCCCC1	0.75	-23	1.4	·	·	·	4.8	·	3
33	Cc1nc(Cl)c(C(=O)Nc2cccc(F)c2)c(C)c1Cl	0.68	3	-2.9	8	6	1.1	-0.4	i	-11
34	COc1ccc2oc(-c3ccc(C)c(NC(=O)CSc4ccc(Cl)cc4)c3)nc2c1	0.73	-1	-0.6	10	9	-3.0	-107	i	2
35	CCCc1c(C)nc(N2CCN(c3ccc(F)cc3)CC2)[nH]c1=O	0.68	7	-2.0	11	5	3.5	2.3	i	·
36	O=C(Oc1cccc2cccnc12)c1ccc(N2C(=O)C3C4CCC(C4)C3C2=O)cc1 (stereo not drawn)	0.66	6	-0.8	·	·	·	1.5	·	-47
37	CC(C)(C)[C@H]1COC(=O)[C@@H](Cc2ccc(F)cc2)CC/C=C/C[C@@H](CC(=O)N[C@@H](CO)Cc2ccccc2)C(=O)N1	·	1	-1.2	5	-4	-7.8	2.0	i	-2
38	O=C(NC1CCCCC1)C1Cc2ccccc2CN1S(=O)(=O)c1ccc(F)cc1 (stereo not drawn)	0.67	6	1.9	-39	-45	-6.2	4.4	i	·
39	CCCC1(C(=O)OCC)NC(c2ccc(OC)cc2OC)C2C(=O)N(c3ccc4c(c3)OCCO4)C(=O)C21 (stereo not drawn)	0.79	-5	-1.1	·	·	·	0.3	·	-2
40	O=c1cc(NC2CCCCC2)[nH]c(=O)[nH]1	0.69	0	0.8	10	10	-0.5	5.7	i	6
41	COc1ccc(CCNC(=O)CS(=O)(=O)c2cn(CC(=O)N(C(C)C)C(C)C)c3ccccc23)cc1OC	0.74	-5	-5.0	4	-1	2.8	-0.3	i	-19
42	CCC(c1nnnn1Cc1ccccc1)N1CCN(c2ccc(OC)cc2)CC1 (stereo not drawn)	0.66	3	-3.2	-20	-15	-0.5	2.6	i	96*
43	CC(NC(=O)c1ccccc1)c1nnc(SCC(=O)NC2CCCC2)n1C (stereo not drawn)	·	3	0.2	2	9	-1.8	·	i	·
44	CC1(C)OC(C(=O)NC2CCCCC2)C(C(=O)NC2CCCCC2)O1 (stereo not drawn)	0.69	-9	-0.1	3	0	-4.1	0.0	i	0
45	Cc1c(OCC(=O)NCCCN2CCCC2=O)ccc2c3c(c(=O)oc12)CCCC3	0.66	-24	2.0	4	6	3.0	-48	i	-4
46	CCOc1ccc(NC(=O)N2CCC(n3nnc4ccccc43)CC2)cc1	0.69	11	4.0	0	1	-1.8	1.7	i	·
47	O=C(O)c1ccccc1NC(=O)C1C2C=CC(C2)C1C(=O)O (stereo not drawn)	0.62	4	8.1	6	5	-1.4	-9.2	i	1
48	CCOC(=O)c1sc2c(c1C)c(=O)c(C(=O)OCC)cn2CC	0.71	-10	2.9	-52	-74	-28	-9.4	i	-1
49	CC1CN(C(=O)C(C)Sc2nnnn2C)CC(C)O1 (stereo not drawn)	0.71	-3	0.6	5	0	-5.4	5.5	i	-3
50	CS(=O)(=O)c1ccc(NS(=O)(=O)c2ccc(Cl)c(C(=O)NCc3ccco3)c2)cc1	0.66	3	-1.4	·	·	·	2.0	i	2
51	COc1cc2c(cc1OC)-c1cc(Nc3ccc(C)cc3)nc(=O)n1CC2	0.69	-6	0.5	21	-5	0.0	-0.5	i	·
52	O=C(Nc1ccc2c(c1)OCCO2)C1CCN(S(=O)(=O)c2cccs2)CC1	0.77	3	0.8	·	·	·	1.3	·	-3
53	CCc1ccc(C(C(=O)NC2CCCC2)N(C(=O)/C=C/C(=O)Nc2cc(C)on2)c2ccccc2C)cc1 (stereo not drawn)	0.69	7	1.1	·	·	·	0.1	·	-5
54	COc1ccc(NCC(=O)Nc2ccc(Cl)cc2C)c(OC)c1	0.68	16	8.9	-19*	-10.0*	6.8*	2.4	i	-4
55	CCN(CC)CCCC(C)NC(=O)c1cccc(S(=O)(=O)N2CCc3ccccc32)c1 (stereo not drawn)	0.66	5	1.9	-1	5	-0.8	-8.0	i	·
56	Cn1c(Cn2cnc3ccccc32)nnc1SCc1ccccc1	0.69	1	-3.3	·	·	·	1.6	·	-10
57	CCS(=O)(=O)c1nc(S(=O)(=O)c2ccc(C)cc2)c(N2CC(C)OC(C)C2)s1 (stereo not drawn)	0.69	-2	0.9	-2	-9	0.5	6.0	i	-2
58	CN(CC(=O)Nc1ccc(F)c(F)c1F)C(=O)CCc1nc2sc3c(c2c(=O)[nH]1)CCCC3	0.63	0	5.6	5	5	-0.6	-6.0	i	-7
59	Cc1nc2oc3c(NCC4CCCO4)ncnc3c2c2c1COC(C)(C)C2 (stereo not drawn)	0.71	-24	2.7	·	·	·	-62	·	-11
60	CC(C)(C)[C@@H]1COC(=O)[C@H](Cc2ccc(F)cc2)C/C=C\C[C@@H](CC(=O)NCCO)C(=O)N1	·	-2	5.3	8	3	16	-1.4	i	-2
61	CCN(c1ccccc1)S(=O)(=O)c1ccc(OC)c(NC(=O)C2CCC2)c1	0.69	11	3.0	·	·	·	1.9	i	3

Three records drawn at random from the list so far, as already listed:
entry	Compound	E coli growth	B2AR ag	HNF4A DNA FP	rRNA inh HTS	rRNA inh HTS OD600	rRNA inh HTS RFP	UCH37 inh	FGF22 binding	ALR H2O2 inh
58	CN(CC(=O)Nc1ccc(F)c(F)c1F)C(=O)CCc1nc2sc3c(c2c(=O)[nH]1)CCCC3	0.63	0	5.6	5	5	-0.6	-6.0	i	-7
57	CCS(=O)(=O)c1nc(S(=O)(=O)c2ccc(C)cc2)c(N2CC(C)OC(C)C2)s1 (stereo not drawn)	0.69	-2	0.9	-2	-9	0.5	6.0	i	-2
43	CC(NC(=O)c1ccccc1)c1nnc(SCC(=O)NC2CCCC2)n1C (stereo not drawn)	·	3	0.2	2	9	-1.8	·	i	·

These rows are one share of the data. The share of hits here may be higher or lower than overall.
